Compound activity (PubChem BioAssay)
EPAC2 antag: validation of human EPAC2 antagonists | EPAC2 Rap1B BODIPY-GDP exchange, fluorescence | hit rate 1.7% among 16,000 | Q8WZA2 | Potency, µM (top dose mostly 112 µM), for the others: top-dose activity, negative = inhibition, most hits filed as inhibitors | AID 1645886; active = well fitted inhibition curve with a large enough effect; inconclusive = small, poorly fitted or top-dose-only effect; inactive = no such curve, though single readings can be large or run the other way;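 also: 100% = activation by cAMP agonist control; nearly all actives have a fitted effect of over 40% in size; the record reuses the description of the EPAC1 agonist screen; inactives centre near -10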
Target sequence (Q8WZA2 whole entry, looked up): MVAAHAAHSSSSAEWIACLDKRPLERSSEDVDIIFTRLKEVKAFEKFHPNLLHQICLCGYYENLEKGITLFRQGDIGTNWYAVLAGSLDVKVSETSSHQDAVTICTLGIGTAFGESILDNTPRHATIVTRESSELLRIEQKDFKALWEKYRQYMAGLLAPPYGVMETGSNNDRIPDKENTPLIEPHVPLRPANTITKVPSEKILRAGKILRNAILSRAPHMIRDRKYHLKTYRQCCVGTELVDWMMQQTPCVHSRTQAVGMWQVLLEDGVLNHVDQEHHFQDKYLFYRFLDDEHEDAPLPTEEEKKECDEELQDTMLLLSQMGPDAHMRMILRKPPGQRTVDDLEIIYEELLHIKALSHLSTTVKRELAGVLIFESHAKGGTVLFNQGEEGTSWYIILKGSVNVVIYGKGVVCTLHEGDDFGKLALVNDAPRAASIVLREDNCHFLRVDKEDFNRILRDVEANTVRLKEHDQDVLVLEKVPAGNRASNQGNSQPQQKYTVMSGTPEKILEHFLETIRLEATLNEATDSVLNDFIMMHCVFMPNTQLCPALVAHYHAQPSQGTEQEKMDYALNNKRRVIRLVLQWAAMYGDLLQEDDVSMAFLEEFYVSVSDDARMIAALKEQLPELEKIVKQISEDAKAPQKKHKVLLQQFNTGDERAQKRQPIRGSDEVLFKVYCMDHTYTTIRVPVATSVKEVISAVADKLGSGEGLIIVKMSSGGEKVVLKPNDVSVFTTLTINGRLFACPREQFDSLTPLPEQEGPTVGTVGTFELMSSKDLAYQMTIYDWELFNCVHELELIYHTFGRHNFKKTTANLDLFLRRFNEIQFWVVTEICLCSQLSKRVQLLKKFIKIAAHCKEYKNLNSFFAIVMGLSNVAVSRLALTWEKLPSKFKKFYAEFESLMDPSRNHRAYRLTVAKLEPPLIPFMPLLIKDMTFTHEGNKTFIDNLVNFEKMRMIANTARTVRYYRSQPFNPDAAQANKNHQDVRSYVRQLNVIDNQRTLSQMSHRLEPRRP
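Fluorescent exchange read-out: 100 nM EPAC2 with 250 nM RAP1B–BODIPY-GDP and 50 uM GDP; BODIPY-GDP release lowers fluorescence. Read at 480/540 nm every 5 min for 30 min at room temperature; normalized to 6.5 mM cAMP.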
Active calls of the source: *; ? = inconclusive; & = joins results of further samples; [ ] = remark or other dose. Potency is read from the fitted curve at half-maximal effect. Only part of the results is shown; count on the stated rates, not on these rows.

SMILES	EPAC2 antag
CC1=CC(=O)c2ccccc2C1=O	-10.5%
CCOC(=O)CNS(=O)(=O)Cc1ccccc1	22.9%
C1CCC(NC(=NC2C3CC4CC(C3)CC2C4)N2CCOCC2)CC1 (centres undefined)	-13.4%[151 µM]
COc1ccc(-n2c(=O)c(-c3cc(F)cc(F)c3)nc3cnc(N4CCOCC4)nc32)cc1	-17.8%
Cc1noc(C)c1-c1ccc2ncnc(NC3CC3)c2c1	-9.5%
O=C(NCc1ccccn1)c1cnn(-c2nccc(-c3ccccc3F)n2)c1C1CC1	-5.9%
Cc1cccc2cc(CN(C(=O)c3ccc(N4CCCCC4)cc3)C3CC3)c(N3CCC(O)CC3)nc12	2.2%
CN(C)Cc1ccccc1-c1nc(NCc2cccs2)c2ccccc2n1	-7.5%
CN(C)C(=O)c1ccc(-c2ccc3ncnc(Nc4ccccc4)c3c2)cc1	-15.5%
CC(C(=O)O)c1cccc(C(=O)c2ccccc2)c1 (centres undefined)	-9.1%&-15.8%&-8.9%
CN(C)c1ccc(-c2nc(-n3ccnc3)c3ccccc3n2)cc1	?
CCC1(C2CCN(Cc3cccc(Cl)c3)CC2)NC(=O)N(CC2COc3ccccc3O2)C1=O (centres undefined)	-16.2%
COc1ccc(-c2nc3cnc(N4CCOCC4)nc3n(CCc3ccccc3)c2=O)cc1	?
O=C(NCCN1Cc2ccccc2OC(c2ccsc2)C1)c1ccc2[nH]ccc2c1 (centres undefined)	-10.9%
O=c1c(-c2cccs2)nc2cnc(N3CCNCC3)nc2n1Cc1cccs1	56.2µM*
Oc1ccc(CCNCCCCCCNCCc2ccccc2)cc1O	5.2%
Cc1ccc(CNc2nc(C)c(-c3ccn(CCN4CCOCC4)n3)s2)o1	5.1%
Cc1oc(-c2cccc(NC(=O)c3ccccc3)c2)nc1CNC(=O)c1cnc2ccccn2c1=O	-3.9%
O=C(c1cccc(N2CCCC2=O)c1)N1CCC(Oc2cccc(CN3CCN(c4ccccn4)CC3)c2)CC1	-22.1%
Nc1nc2nc(Cl)[nH]c2c(=O)[nH]1	-7.6%
COc1cccc(CN2CCCC(c3nc(-c4ccncc4)ncc3-c3ccccc3)C2)c1O (centres undefined)	-27.2%
Nc1ccccc1C(=O)C[C@H](N)C(=O)O	1.4%
Cc1cccc(CNc2nc(-c3ccoc3)nc3ccccc23)c1	-13.0%
CCOC(=O)C1=C[C@@]2(CC)CCCN3CCc4c(n1c1ccccc41)[C@H]32	-34.9%
O=C(c1csnn1)N1CCC[C@@]2(CCN(c3cccc(-c4ccccc4)c3)C2)C1	-18.9%
COCc1c(C(=O)N2CCN(c3ccccc3)CC2)cnn1-c1nccc(-c2ccco2)n1	-17.0%
CN1CCc2cc3c(cc2[C@@H]1[C@@H]1C(=O)Oc2c1ccc1c2OCO1)OCO3	-26.0%
COc1ccc2c3c1OC1CC(O)C=C[C@@]31CCN(C)C2 (some centres undefined)	-12.4%
O=C(c1n[nH]c2c1CCCC2)N1CCC(n2c(C3CCCO3)nc3ccccc32)CC1 (centres undefined)	-9.4%
CO[C@H]1[C@H](NC(=O)c2ccsc2)c2ccccc2C12CCN(Cc1cc(Cl)ccc1O)CC2	-2.0%
CC(=O)OCC(=O)[C@]1(O)C(C)CC2C3CCC4=CC(=O)C=C[C@@]4(C)[C@]3(F)C(O)C[C@@]21C (some centres undefined)	-15.8%
CCn1c(C)nc2cc(NS(=O)(=O)c3ccccc3)cc(C(=O)N3C[C@@H](C)O[C@@H](C)C3)c21	11.7%
O=S(=O)(c1ccccc1)N1CCC2(CCCN(c3ncccn3)C2)CC1	?
COCCNc1ncnc2ccc(-c3ccc(C(=O)N(C)C)cc3)cc12	-22.1%
Nc1ncnc2c1ncn2C1CCCC1	?
O=C(c1cn(C2CCCN(Cc3cccc(Oc4ccccc4)c3)C2)nn1)N1CCCC1 (centres undefined)	-12.5%
COCC1CCCN(Cc2ccc3c(c2)CN(C(=O)c2ccc(-n4cccn4)cc2)CCO3)C1 (centres undefined)	8.6%
CC1O[C@@H](Oc2c(-c3ccc(O)c(O)c3)oc3cc(O)cc(O)c3c2=O)C(O)C(O)C1O (some centres undefined)	-13.0%
Cc1ncc2c(c1CNC(=O)c1ccc3c(c1)OCO3)CCN(C(=O)c1cc3ccccc3o1)C2	-15.0%
C[C@]12O[C@H](C[C@]1(O)CO)n1c3ccccc3c3c4c(c5c6ccccc6n2c5c31)CNC4=O	-16.3%
CCC1CN(CCNC(=O)c2cscn2)Cc2cc(OC)ccc2O1 (centres undefined)	-7.3%
CC(C)CN1CCC2(CC1)CCN(C(=O)c1ccncc1)CC2	-15.2%
Cc1cnc(CNc2ccnc(-c3cccc(C#N)c3)n2)cn1	-7.8%
COc1cc(=O)n2c(c1C(=O)NCc1ccco1)CCN(Cc1ccc3nsnc3c1)CC2	-0.8%
CCOC(=O)[C@H](CCc1ccccc1)N[C@@H](C)C(=O)N1[C@H](C(=O)O)C[C@H]2CCCC[C@@H]21	-4.3%&-3.6%&-17.9%
CN(C)c1ccc(-c2cncnc2Nc2ccc(F)cc2)cc1	-23.0%
C[C@]12CC[C@@H]3c4ccc(O)cc4C[C@@H](CCCCCCCCCS(=O)CCCC(F)(F)C(F)(F)F)[C@H]3[C@@H]1CC[C@@H]2O (some centres undefined)	?
CN(CCOc1ccc(CC2SC(=O)NC2=O)cc1)c1ccccn1 (centres undefined)	-17.1%
Nc1ncnc2c1ncn2CCOCP(=O)(O)O	-2.0%
Nc1nc(/C(=C/CC(=O)O)C(=O)N[C@@H]2C(=O)N3C(C(=O)O)=CCS[C@H]23)cs1	10.4%
Cc1cnc(-n2ncc(C(=O)NCc3ccncc3)c2C2CC2)nc1-c1cccs1	-19.4%
COc1ccc(-n2c(=O)c(-c3cc(F)cc(F)c3)nc3cnc(N(C)C)nc32)cc1	13.4%
CC=C1C2C=C(C)CC1(N)c1ccc(=O)[nH]c1C2 (centres undefined)	2.2%
OC(c1ccc2c(c1)CN(Cc1cccc3nccnc13)CCO2)C1CCCCC1 (centres undefined)	-21.8%
Nc1ccc(O)c([N+](=O)[O-])c1	-4.4%[239 µM]
N[C@H](CS)C(=O)O	1.9%
CC(C)NCC(O)COc1cccc2[nH]ccc12 (centres undefined)	-8.1%&-12.6%&-16.0%
Cc1c(F)c(N2CCNC(C)C2)cc2c1c(=O)c(C(=O)O)cn2C1CC1 (centres undefined)	2.4%
Cn1c(=O)c(-c2ccccc2)nc2cnc(N3CCOCC3)nc21	-11.3%
CCCCCCCCCC(=O)NC(CN1CCOCC1)[C@H](O)c1ccccc1 (some centres undefined)	-26.0%

(cont.)
SMILES	EPAC2 antag
CC(=O)Nc1nnc(S(N)(=O)=O)s1	3.6%&51.4%&-37.7%
Cc1nc2cnc(N3CCNCC3)nc2n(C2CC2)c1=O	-6.8%
C[C@@H](CCCCC(=O)Nc1ccc(C(F)(F)F)cc1)NCCc1cnc[nH]1	-11.0%
CCNc1ncc2nc(-c3cccs3)c(=O)n(CCC#N)c2n1	152.1%[activator]
CC(C)C(O)c1ccc2c(c1)CN(C(=O)c1ccccc1-n1cccn1)CCO2 (centres undefined)	-6.0%
O=c1c(-c2ccc(F)cc2)nc2cnc(N3CCNCC3)nc2n1C1CC1	-2.7%
CC(C)NC[C@@H](O)COc1ccc(CC(N)=O)cc1	-8.0%
COC(=O)C1CCCCN1Cc1ccc2c(c1)CN(C1CCSCC1)CCO2 (centres undefined)	-13.5%
Cn1c(=O)c(CCc2ccccc2)nc2cnc(OCc3ccccc3)nc21	-0.9%
CC(=O)C[C@H]1c2cc(F)cc(F)c2S(=O)(=O)N1C1CCN(Cc2ccccc2)CC1	-25.6%
CN1CCCN(C(=O)[C@@H]2C[C@@H](Sc3nc4ccccc4[nH]3)CN2Cc2ccc(OC(F)(F)F)cc2)CC1	-5.1%
COc1ccc(OC)c(C(O)CNC(=O)CN)c1 (centres undefined)	-9.3%
C[C@@H](O)[C@H]1C(=O)N2C(C(=O)[O-])=C(SC3Cn4cnc[n+]4C3)[C@H](C)[C@H]12 (some centres undefined)	1.1%
COc1cccc(CNc2ncnc3sc(C(=O)N4CCOCC4)c(C)c23)c1OC	?
COc1ccc(NC(=O)N2CCC3(CC2)CCN(C(=O)c2cccn2C)CC3)cc1	-13.1%
CC(=O)N1CCN(C(=O)c2sc3ncnc(NCC4CCCO4)c3c2C)CC1 (centres undefined)	?
CC(C)NC(=O)[C@@H]1C[C@@H](Sc2nc3ccccc3[nH]2)CN1C1Cc2ccccc2C1	-24.6%
O=C1C2CC3CC1CC(O)(C3)C2	-22.7%
C[C@@H]1C[C@@H](CC(=O)NCC2Cc3cccc(-c4ccncc4)c3O2)NC(=S)N1 (some centres undefined)	-14.4%
COc1ccc(C(=O)N2CCC3(CC2)c2ccccc2[C@@H](NC(=O)c2ccccn2)[C@@H]3OC)c(O)c1	4.0%
COC(=O)C1C(O)CC[C@@H]2CN3CCc4c([nH]c5ccccc45)C3C[C@@H]12 (some centres undefined)	-3.7%&-6.7%
Cc1ccc(CN2[C@@H](CC3CCCCC3)COCCS2(=O)=O)cc1	?
C[C@H]1C[C@@H]2[C@@H]([C@@H](O)C[C@@]3(C)[C@H]2CC[C@]3(O)C(=O)CO)[C@@]2(C)C=CC(=O)C=C12	15.3%[56.6 µM]
COCc1ccc(CN2CCOc3c(O)cc(-c4cc(C)c5ccc(F)cc5n4)cc3C2)o1	-22.8%
Cc1nnc(SCC2=C(C(=O)O)N3C(=O)[C@@H](NC(=O)Cn4cnnn4)[C@H]3SC2)s1	-5.9%&-5.7%
COCC(=O)Nc1cc(C(=O)N2CCc3c([nH]c4ccccc34)C2)cc2nc(-c3ccccc3)n(C)c12	?
COc1c(C)c2c(c(O)c1CC=C(C)CCC(=O)OCCN1CCOCC1)C(=O)OC2	-15.0%
CCOc1cccc(C(=O)c2ccc(O)c(O)c2O)c1	-0.8%
COCCNc1cc(-c2c(C)noc2C)ncn1	-5.4%
COc1cc(C(=S)N2CCOCC2)cc(OC)c1OC	8.6%
Oc1cc(O)cc(/C=C/c2ccc(O)c(O)c2)c1	?
Cc1cnc(CNc2ncncc2-c2ccc(N(C)C)cc2)cn1	-18.7%
C[C@H]1C[C@H]2[C@@H]3CCC4=CC(=O)C=C[C@]4(C)[C@@]3(F)[C@@H](O)C[C@]2(C)[C@@]1(O)C(=O)CO	1.4%
COc1ccccc1-c1ccnc(-n2ncc(C(=O)NCCCN3CCOCC3)c2C)n1	-3.0%
Cc1c(C(=O)N2CCN(C)CC2)sc2ncnc(NCC3(c4ccccc4)CCOCC3)c12	-23.9%
N#CCCn1c(=O)c(-c2cccs2)nc2cnc(OCc3ccccc3)nc21	-26.9%
COC(=O)c1cc(Br)ccc1N(Cc1cc(OC)cc(OC)c1)S(C)(=O)=O	?
CC(=O)N1CCC2(CC1)CN(Cc1cc(C(F)(F)F)cc(C(F)(F)F)c1)C2	-11.6%
CC(C)c1c(C(=O)NCc2cccnc2)cnn1-c1nccc(-c2cccs2)n1	-8.6%
COc1ccccc1CNc1ncnc2ccc(-c3ccoc3)cc12	-11.8%
COc1ccc(Oc2ncc3nc(-c4cccs4)c(=O)n(-c4ccccc4)c3n2)cc1	-25.7%
COc1ccc(-c2nc3cnc(Nc4cccc(OC)c4)nc3n(Cc3cccs3)c2=O)cc1	-10.4%
CO[C@H]1C=CO[C@@]2(C)Oc3c(C)c(O)c4c(O)c(c5c(nc6cc(C)ccn65)c4c3C2=O)NC(=O)/C(C)=C\C=C[C@H](C)[C@H](O)[C@@H](C)[C@@H](O)[C@@H](C)[C@H](OC(C)=O)[C@@H]1C	-26.8%
COc1ccccc1-c1cncnc1NCCc1cnc[nH]1	-19.1%
O=C(NCCc1ccccn1)C1CC12CCN(C(=O)c1ccccc1Cl)CC2 (centres undefined)	9.4%
COCC(=O)Nc1cc(C(=O)N2CCCCC2c2nccn2C)cc2nc(-c3ccccc3)n(C)c12 (centres undefined)	-30.7%
CCCCC/C=C\C/C=C\C/C=C\C/C=C\CCCC(=O)O[C@@H](CO)COCCCCCCCCCCCCCCCC	-14.2%[11.4 µM]
O=C1c2ccccc2C(=O)c2c(O)ccc(O)c21	57.3%[activator]
C[C@H]1CCC(=O)N([C@H](CC#N)Cc2ccccc2)CC1	9.0%
